Screening data from PubChem BioAssay.
HPGD inh: HPGD (human) dehydrogenase inhibition; P15428; purified HPGD, NADH fluorescence kinetic, PGE2 substrate; Potency, µM, for the others: at the top dose activity change, negative = inhibition, usual class: inhibitors; hit rate 4.3% among 150,000; active = well fitted inhibition curve with a large enough effect (not every such curve was filed as active); inconclusive = small, poorly fitted or top-dose-only effect, or another doubt; inactive = no such curve, though single readings can be large or run the other way;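 also: top concentration of the series not given in the record; plate controls included wells without enzyme; inactives centre near -10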
Target sequence (P15428 whole entry, looked up): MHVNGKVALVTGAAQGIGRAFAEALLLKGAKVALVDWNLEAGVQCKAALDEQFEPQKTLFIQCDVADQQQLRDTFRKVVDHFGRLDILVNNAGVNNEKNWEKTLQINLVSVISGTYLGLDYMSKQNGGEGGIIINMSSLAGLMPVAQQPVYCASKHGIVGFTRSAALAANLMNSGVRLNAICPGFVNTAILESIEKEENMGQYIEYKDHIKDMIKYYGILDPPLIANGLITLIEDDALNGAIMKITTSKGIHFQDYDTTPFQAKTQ
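20 nM HPGD preincubated 15 min at room temperature with compound in 50 mM Tris-HCl pH 8, 0.01% Tween 20. Started with 1 mM NAD+ and 30 uM prostaglandin E2; NADH fluorescence (360/450 nm) read 5 times over 30-s intervals, last minus first.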
An asterisk follows results filed as active; ? = inconclusive. % is scaled to controls: 0 for no effect and ±100 for the full control effect; potency is read from the fitted curve at half-maximal effect.

SMILES	HPGD inh
Cc1ccc(-n2c(C)nn(-c3ncc(C(F)(F)F)cc3Cl)c2=O)cc1	1.2%
COc1cc2c(cc1O)CCC1C2CC[C@]2(C)[C@@H](O)CC[C@@H]12 (stereo partly drawn)	-10.5%
CC(C(=O)c1ccc(Br)cc1)[n+]1cccc(NC(=O)c2ccccc2)c1 (stereo not drawn)	1.6%
COc1ccc(-c2nsc(SCC(=O)NCc3ccc4c(c3)OCO4)n2)cc1	-12.3%
Cc1noc(C)c1COC(=O)c1cc(F)c(F)cc1Cl	-9.8%
O=C(c1cnn2cccnc12)N1CCN(Cc2ccc3c(c2)OCO3)CC1	-1.2%
COc1ccc(-n2nc(C(=O)Nc3ccc4c(c3)OCO4)c3ccccc3c2=O)c(OC)c1	-3.1%
Cc1ccc(-c2nnn(CC(=O)N3CCCCC3)n2)c(-n2cnnn2)c1	-16.4%
NC(=Nc1ccccc1)Nc1ccccc1	-8.9%
C/C(=N\O)C(=O)C(CN1CCCCC1)CN1CCCCC1	?
Cc1ccc(C(C(=O)NC2CCCCC2)N2CCN(C(=O)c3ccco3)CC2)cc1 (stereo not drawn)	-3.9%
COC(=O)c1[nH]c2ccccc2c1NC(=O)CNC1CCCCC1	-24.1%
Cc1cc(C)cc(NC(=O)CSc2ccc(-c3cccs3)nn2)c1	-12.2%
CCOC(=O)C(C)/C(C)=N/NC(N)=S (stereo not drawn)	?
N#C/C(=C(/O)CSc1ccccc1C(=O)O)c1nc2ccccc2s1	-12.8%
CN(C)c1ccc(C2N(c3ccc(F)cc3)C(=O)C3CCCN32)cc1 (stereo not drawn)	-25.4%
CC(=O)Nc1nc(-c2ccccc2)nc(-c2ccccc2OC(C)=O)n1	-10.5%
CC(C)OCCCNC(=O)CCc1nc(-c2ccccc2)no1	-15.9%
CCC(/C=N/NC(=O)C(N)=O)CC	0.0%
Cc1ccc2cc(C(c3nnnn3C(C)(C)C)N3CCCCCC3)c(=O)[nH]c2c1 (stereo not drawn)	?
CCCC(=O)Nc1nnc(SCC(=O)NCc2ccco2)s1	-2.5%
C=CCN1C(=O)C2C(C(=O)NC3CCCCC3)C3C=CC2(O3)C1C(=O)NC1CCCC1 (stereo not drawn)	-9.7%
Cc1cc(C)n(-c2cccc(Cl)c2)c(=O)c1C#N	-10.6%
Cc1cc(C)nc(SCc2nnc(SCC(=O)Nc3nccs3)n2C)n1	-16.6%
O=c1[nH]c(N/N=C/c2ccc(O)cc2)nc2ccccc12	?
Cc1ccc(C)c(CS(=O)(=O)c2cn(CC(=O)N3CCCCC3)c3ccccc23)c1	-1.6%
COC(=O)/C=C1\C(=O)N(c2nc3ccccc3s2)C(=S)N1c1ccc(F)cc1	-11.1%
O=C(CSc1ccccn1)N1CCN(c2ccccc2)CC1	-19.3%
O=C(CC1CCCCC1)N1CCN(c2ccccn2)CC1	-20.5%
CCOC(=O)c1cc(CC)sc1/N=C/C1=C(O)CCCC1=O	-14.1%
O=C(Cn1cnc2ccccc21)OCC(=O)N1CCc2ccccc2C1	-14.0%
COc1ccc(-c2cc(-c3nnc(COC(=O)C4CC4C)o3)c3ccccc3n2)cc1OC (stereo not drawn)	?
Cc1cc(/C=N/NC(=O)COc2cccc3cccnc23)c(C)n1-c1ccc(O)cc1	-4.6%
Cc1cnc(NC(=O)CSc2nc3ccccc3s2)s1	-13.1%
CN(C)CCCNC(=O)c1ccc(CN(c2ccccc2)S(C)(=O)=O)cc1	-13.1%
CN(C)CCOc1nc(-c2ccccc2)nc2c1oc1ccccc12	-16.5%
FC(F)C(F)(F)C1=CC(c2cccs2)=NCCN1	-23.4%
CC(=O)N1CCc2cc(S(=O)(=O)NC(C(=O)NC3CCCc4ccccc43)C(C)C)ccc21 (stereo not drawn)	?
Cc1cccc(C)c1OCCNC(=O)CCC(=O)c1ccccc1	-6.0%
O=C1CCC(=O)N1c1ccc(CSc2nc3ccccc3[nH]2)cc1	-21.3%
CC(=O)N1N=C(c2ccncc2)OC12CCCCC2	?
CCOc1ccccc1-c1nnc(SCC(=O)NC2CC3CCC2C3)n1CC (stereo not drawn)	-25.7%
O=C(CCC(=O)c1ccc(Oc2ccccc2)cc1)Nc1cccc(Cl)c1Cl	-9.6%
O=C(CNC(=O)c1ccccc1F)NCCOc1ccccc1Cl	-4.0%
Cc1cc(C)cc(NC(=O)c2nccnc2C(=O)O)c1	-15.9%
Cc1cc2oc(=O)cc(C)c2c(=O)o1	-18.3%
O=[N+]([O-])c1ccc(N2CCN(S(=O)(=O)c3ccc4ccccc4c3)CC2)cc1NCC1CCCO1 (stereo not drawn)	-20.2%
CCN(CC)S(=O)(=O)c1ccc(C(=O)NCc2n[nH]c(=S)n2Cc2ccccc2)cc1	-10.2%
CCOC(=O)c1c(N)sc(C(O)(C(F)(F)F)C(F)(F)F)c1-c1ccc(OC)cc1OC	-10.2%
CCN(CC)S(=O)(=O)c1ccc(NC(=O)COC(=O)c2ccc(Br)o2)cc1	-7.2%

Continuation.
SMILES	HPGD inh
N#Cc1cc2c(nc1SC1CCCCC1O)CCCC2 (stereo not drawn)	-3.8%
c1ccc(-c2nc3nc4ccccc4nc3n2Cc2ccco2)cc1	?
COc1ccc(C(CNC(=O)Cn2[nH]c(=O)c3ccccc3c2=O)N2CCCC2)cc1 (stereo not drawn)	-10.5%
Cc1ccc(C(C)C)c(OCc2ccc(C(=O)N/N=C/c3ccc(O)c(O)c3)cc2)c1	?
O=C(c1ccco1)N1CCN(c2ncnc3c2[nH]c2ccc(Br)cc23)CC1	?
CCS(=O)(=O)n1nc(-c2ccccc2)nc1SCc1ccccc1	14.1µM*
CC1(C)Cc2c(sc3nn[nH]c(=O)c23)CO1	?
CC(c1ccco1)N(C(=O)c1ccc(C#N)cc1)c1ccccn1 (stereo not drawn)	0.2%
Cn1nnc(NC(=O)c2ccccc2F)n1	5.9%
Cc1cc2cc(NC(=O)c3ccco3)ccc2[nH]1	?
COc1ccc(N(C(=O)c2cnsn2)C(C(=O)NC2CCCCC2)c2ccncc2)cc1 (stereo not drawn)	7.2%
Cc1cccc(N2C(=O)CC(Sc3nc(-c4ccccc4)c4cc(Cl)ccc4n3)C2=O)c1 (stereo not drawn)	?
COc1ccc(NC2=Nc3cccc4cccc2c34)cc1OC	-17.2%
Cc1cccc(CCN(Cc2cc3cccc(C)c3[nH]c2=O)C(=O)N2CCOCC2)c1	-9.8%
c1ccc(CNc2cnccn2)cc1	?
COc1ccc2c(c1)O[C@@H](c1cccc(C(F)(F)F)c1)[C@H](OC(=O)NC1CCCC1)C2=O	-11.7%
COc1ccc(NC(=O)COC(=O)CC2CC3CCC2C3)c([N+](=O)[O-])c1 (stereo not drawn)	-28.7%
Cc1ccc(NC(=S)NNC(=O)CSc2nnc(-c3ccc(Cl)cc3)n2C2CCCCC2)cc1	-15.2%
Cn1c(=O)c2c(ncn2CC(N)=O)n(C)c1=O	-12.3%
Cc1nn(-c2ccccc2)c2nc(Cl)c(C(=O)O)cc12	?
COc1ccccc1C(=O)NCCC(=O)N1CC(=O)Nc2ccccc21	-20.0%
Cc1ccccc1NC(=S)NC1CC2CCC(C1)N2Cc1ccco1 (stereo not drawn)	-2.2%
CC(C)(C)c1ccc(S(=O)(=O)N2CCCC2C(=O)NC2=NCCS2)cc1 (stereo not drawn)	-8.7%
CCCC(=O)CN1C(=O)C2(OCCO2)c2ccccc21	6.2%
CCOC(=O)/C(=C\c1ccccc1)C(=O)c1cc(C(C)=O)c(Nc2ccccc2)s1	-10.7%
Cn1nc(C(=O)NC(C)(C)C)c2ccccc21	-8.6%
O=C(Nc1ccc(Br)c2cccnc12)c1ccc(Cn2cc(Cl)cn2)o1	-7.5%
CC(C)CCNC(=S)Nc1ccccc1F	-17.3%
O=C(CSc1nnc(C2CC2)n1Cc1ccccc1)c1cc2ccccc2o1	-20.5%
O=C(COc1c(F)c(F)c(C(F)(F)F)c(F)c1F)Nc1ccc(N2CCOCC2)c(Cl)c1	-14.7%
CC(C)(C)n1nc(-c2ccc(F)cc2)c2c(N)ncnc21	-22.9%
CCOC(=O)CSc1nnc(-c2ccccc2NC(=O)c2ccccc2)o1	-23.0%
COC(=O)C1CCN(C(=O)Cc2ccc(C)cc2)CC1	-16.5%
Nc1nc2ccccc2n1/N=C/c1ccc([N+](=O)[O-])s1	-20.7%
CCOc1ccc(N=C(NC#N)SCC)cc1	2.5%
Cc1ccc(C2(CCNS(=O)(=O)c3ccc(C)cc3)CCOC(C(C)C)C2)cc1 (stereo not drawn)	-7.4%
CC(C)Cc1nc2oc3c(NCC4CCCO4)ncnc3c2c2c1CCC2 (stereo not drawn)	-7.5%
Cc1cc(=O)n2[nH]c(C(=O)O)nc2n1	-11.4%
Cc1nnc(SCc2nc3ccccc3nc2C)s1	-2.7%
CC(C)C1S/C(=N/N=C/c2cccs2)NC1=O (stereo not drawn)	25.1µM*
COCOc1cc(OC)ccc1C(=O)/C=C/c1ccc([N+](=O)[O-])cc1	-2.9%
Fc1ccc(-c2csc3ncnc(N4CCc5ccccc5C4)c23)cc1	-8.3%
O=C1C(=O)c2ccccc2C(O)=C1C1CCC(c2ccc(Cl)cc2)CC1 (stereo not drawn)	?
O=C(CSc1ncnc2nc[nH]c12)Nc1ccccc1C(F)(F)F	8.91µM*
COCCNC(=O)COc1cccc(Oc2ccccc2)c1	-1.2%
Cc1ccc(CNCc2cc3c(C(C)(C)C)nn(-c4ccccc4)c3[nH]c2=O)cc1	-16.6%
Cc1cccc(/C=N/n2c(-c3cc(-c4ccccc4)n[nH]3)n[nH]c2=S)c1	5.01µM*
COC(=O)CN1C(=O)S/C(=C/c2cc(C)n(C)c2C)C1=O	-1.2%
CC(Sc1nc2ccccc2[nH]1)C(=O)O (stereo not drawn)	-9.8%
CCSC1=C(C#N)C(c2ccc3c(c2)OCO3)C2=C(CCCC2=O)N1 (stereo not drawn)	14.1µM*

Remaining list, next part:
SMILES	HPGD inh
O=C1C2C3C=CC(C4CC34)C2C(=O)N1/N=C/c1ccc(-c2ccc(F)cc2[N+](=O)[O-])o1 (stereo not drawn)	20µM*
O=C(CN1CC(c2ccccc2)CC1=O)OCc1ccccc1F (stereo not drawn)	-20.6%
O=C(Cc1ccccc1)Nc1ccccc1Oc1ccccc1	-2.1%
O=C(NC1CCCCCCC1)C1c2ccccc2C(=O)N1Cc1cccs1 (stereo not drawn)	-0.8%
CCOC(=O)/C(=N/Nc1ccc(Cl)cc1)S(=O)(=O)c1ccccc1	-21.6%
C=CCOC(=O)C1=C(C)NC(C)=C(C(=O)OCC=C)C1c1cccs1	-29.2%
Cc1c(N=Cc2cc3c(cc2Cl)OCO3)c(=O)n(-c2ccccc2)n1C	-3.1%
CCOc1ccc(C(C)NC(=O)Cc2ccccc2)cc1OCC (stereo not drawn)	-3.0%
Cc1cc(C)c2c(=O)n(CC(=O)N3CCC(N4CCCCC4)CC3)sc2n1	12.6µM*
CCC1(C)Cc2c(sc3nc4n(c(=O)c23)CCS4)CO1 (stereo not drawn)	-15.1%
CCCCCCCN(C(=O)CCl)c1cccc(C)c1	-25.6%
CC(C)[C@H](NC(=O)[C@@H]1CSCN1C(=O)OC(C)(C)C)C(=O)NCC1CCC(C(=O)O)CC1 (stereo partly drawn)	-1.5%
CC1=C(C(=O)Nc2ccccc2C)C(c2ccc(C)o2)n2c(s/c(=C/c3ccccc3)c2=O)=N1 (stereo not drawn)	-7.9%
COC(=O)[C@H](CCSC)NC(=O)Nc1ccc(C)c(C)c1	-16.1%
CC(=O)Nc1ccc(Nc2nc(C)c([N+](=O)[O-])c(Nc3ccc(NC(C)=O)cc3)n2)cc1	-4.0%
Nc1cc(N)nc(SCCN2CCCCC2)n1	0.3%
O=C(N/N=C1\C2CN3CCN(C2)CC1(c1ccccc1)C3)c1ccc(F)cc1	3.6%
CCOC(=O)c1cnn(-c2ccc(Cl)cc2)c1C1CCN(C(=O)OC(C)(C)C)CC1	-19.0%
O=c1c2ccccc2nc(SCc2ccccc2)n1Cc1ccco1	-24.6%
Nc1c(-c2ccc(Cl)cc2)cnn1-c1cccc([N+](=O)[O-])c1	-25.5%

A portion of the library; the hit share may differ from the screen's.
